# Source: PubChem BioAssay (National Center for Advancing Translational Sciences (NCATS))
# 2A StopGo – lowers the luciferase signal of an FMDV 2A StopGo reporter. human cells with a luciferase reporter of 2A StopGo recoding; control for the full effect not named in the record. Potency, µM (series often up to 57.9 µM), inactives show at the highest dose signal change, negative = less light. actives 1.2% (n = 410,000). AID 1159524; active = well fitted falling curve with a large enough effect; inconclusive = small, poorly fitted or top-dose-only effect; inactive = no such curve, though single readings can be large or run the other way; tested in HEK293T cells; further: on the % scale 0 is the no-effect control and ±100 the full control effect; nearly all actives have a fitted effect of over 45% in size; luciferase light after 4 h
# Cruzain inh Det – cruzain (T. cruzi) inhibition with detergent. actives 0.43% (n = 200,000). purified cruzain, Z-FR-AMC fluorescence, 0.01% Triton. AID 1478. Potency, µM, for inactives: max response, negative = inhibition, most hits filed as inhibitors; active means well fitted curve in the direction sought with a large enough effect; inconclusive means small, poorly fitted or top-dose-only effect, or another doubt; inactive means no such curve, though single readings can be large; an effect the other way counts as inactive or inconclusive;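 further: plate controls were neutral wells for no effect and buffer without enzyme for full effect; nearly all actives have a fitted effect of over 40% in size; top concentration of the series not given in the record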
# Target sequence (P25779 123-467 limits assumed): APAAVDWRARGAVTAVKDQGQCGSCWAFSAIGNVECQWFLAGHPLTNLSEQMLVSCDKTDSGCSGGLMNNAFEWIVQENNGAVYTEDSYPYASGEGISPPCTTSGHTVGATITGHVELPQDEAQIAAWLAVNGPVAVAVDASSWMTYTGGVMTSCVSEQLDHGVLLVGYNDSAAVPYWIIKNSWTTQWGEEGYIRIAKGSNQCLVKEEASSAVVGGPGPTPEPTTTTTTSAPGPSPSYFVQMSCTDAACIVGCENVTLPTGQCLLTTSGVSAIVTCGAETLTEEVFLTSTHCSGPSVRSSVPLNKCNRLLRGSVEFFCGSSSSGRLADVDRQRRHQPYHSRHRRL
#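 Read-out: AMC fluorescence (360 nm excitation, 450 nm emission), four reads over 2 min, first-to-third difference used. Conditions: cruzain 1.5 nM, Z-FR-AMC 2 uM, pH 5.5 acetate, 5 mM DTT, 0.01% Triton X-100.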
# SARS PLP yeast – blocks SARS-CoV papain-like protease in a yeast assay; S. cerevisiae expressing SARS-CoV PLpro, growth rescue; control for the full effect not named in the record; Potency, µM (series often up to 32.9 µM), inactives show top-dose activity, positive = growth rescue; actives 0.19% (n = 330,000); AID 485353; further: 0% is about no effect; nearly all actives have a fitted effect of over 55% in size; growth read by luminescence after 48 h
# RE007 growth inh – less growth of the S. pombe RE007 Vpr strain | actives 0.21% (n = 360,000) | S. pombe RE007 Vpr strain, BacTiter-Glo ATP luminescence, 24 h; control for the full effect not named in the record | AID 651644 | Potency, µM (titrated, usually from 92.2 µM), inactives show top-dose activity change, negative = less growth; active = well fitted falling curve with a large enough effect; inconclusive = small, poorly fitted or top-dose-only effect; inactive = no such curve, though single readings can be large or run the other way;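 further: on the % scale 0 is the no-effect control and ±100 the full control effect; nearly all actives have a fitted effect of over 50% in size; the assay follows cell death caused by Vpr and the record does not say whether a fall means rescue or toxicity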
#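 Fission yeast RE007 carrying one integrated HIV-1 vpr copy, seeded at OD 0.01 in PMG+AL medium with 23 nL pinned compound. Grown 24 h at 30 degrees; viability read by BacTiter-Glo luminescence after 5 min.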
# Cruzain noTriton – blocks cruzain activity in detergent-free assay; P25779; purified cruzain, Z-FR-AMC fluorescence, no detergent; Potency, µM, for the others: max response, negative = inhibition, hits mostly inhibitors; actives 2.3% (n = 200,000); AID 1476; active means well fitted curve in the direction sought with a large enough effect; inconclusive means small, poorly fitted or top-dose-only effect, or another doubt; inactive means no such curve, though single readings can be large; an effect the other way counts as inactive or inconclusive;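 further: plate controls were enzyme without inhibitor for no effect and buffer without enzyme for full effect; nearly all actives have a fitted effect of over 40% in size; top concentration of the series not given in the record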
#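 Detergent-free condition (0.00005% Triton X-100) in acetate buffer pH 5.5 with DTT. 1.5 nM enzyme and compound were pre-mixed 15 min, then 2 uM Z-FR-AMC substrate added; reaction progress from fluorescence change between first and third reads (60 s).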
# Lassa entry inh – Lassa virus entry inhibition; Lassa virus pseudotype entry inhibition, cell reporter; control for the full effect not named in the record; Potency, µM (highest dose often 37.9 µM), without a hit: at the highest dose activity change, negative = inhibition, hits mostly inhibitors; actives 1.2% (n = 300,000); AID 540256; active means well fitted inhibition curve with a large enough effect; inconclusive means small, poorly fitted or top-dose-only effect, or effect the other way; inactive means flat fitted curve, though single readings scatter; tested in HEK293 cells; further: on the % scale 0 is the no-effect control and ±100 the full control effect; nearly all actives have a fitted effect of over 50% in size; luciferase read-out
# NS1 function inh – influenza NS1 inhibition; S. cerevisiae slowed by influenza A NS1, growth recovery by OD600; Potency, µM (top dose mostly 46.1 µM), for the others: at the highest dose activity, positive = more growth; actives 0.4% (n = 270,000); AID 2326; further: actives are rising curves; nearly all actives have a fitted effect of over 50% in size
#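 Growth recovery, yeast-based: influenza A NS1 expressed in S. cerevisiae causes slow growth, and suppressors are detected by OD600. The parent strain without NS1 is used as positive control.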
# Marburg entry inh – Marburg virus entry inhibition. Marburg virus pseudotyped entry inhibition, cell reporter; control for the full effect not named in the record; about a third of the inactives were read at about 46 µM. Potency, µM (series often up to 37.8 µM), without a hit: top-dose activity change, negative = inhibition, hits mostly inhibitors. actives 1.8% (n = 300,000); active = well fitted inhibition curve with a large enough effect; inconclusive = small, poorly fitted or top-dose-only effect, or effect the other way; inactive = flat fitted curve, though single readings scatter; tested in HEK293 cells; about a fifth of its hits are not listed in these tables; further: on the % scale 0 is the no-effect control and ±100 the full control effect; luciferase read-out
# Starred values were filed as active, the others as inactive; u = inconclusive; x = not tested or not shown; [ ] = remark or other dose. Unless noted, the call rests on the fitted dose curve; in most records, active means well fitted rising curve with a large enough effect; inconclusive means small, poorly fitted or top-dose-only effect; inactive means no such curve, though single readings can be large or run the other way. Potency means the concentration at half of the fitted maximal effect.
no. | Structure | 2A StopGo | Cruzain inh Det | SARS PLP yeast | RE007 growth inh | Cruzain noTriton | Lassa entry inh | NS1 function inh | Marburg entry inh
1 | Cc1sc2nc(SCC(=O)NCCOCCO)nc(N)c2c1C | -7% | x | -1% | -11% | x | -10%[46.1 µM] | -1% | 6%
2 | CCOC(=O)C1(Cc2ccccc2C)CCCN(C(=O)c2ccc(CSC)o2)C1 (stereo not given) | -19% | x | -4% | 11% | x | u | -15% | u
3 | Cc1c(C(c2cc3c(cc2Br)OCO3)c2c(C)n(C)n(-c3ccccc3)c2=O)c(=O)n(-c2ccccc2)n1C | 62%[activator] | -4.1% | 0% | 10% | 4% | 13% | 6% | -1%
4 | COc1ccc(C(=O)/C=C/c2ccc(O)cc2)cc1 | 30%[activator] | x | -4% | -20% | x | x | -34% | x
5 | Cc1ccc(-n2c(SCC(=O)NCc3ccco3)nnc2-c2cccnc2)cc1 | -4% | -2.4% | -6% | -7% | 5% | 10% | -1% | 3%
6 | O=C(O)Cc1sc(-c2ccccc2)nc1-c1cccs1 | 39%[activator] | x | -4% | -7% | x | 14%[46.1 µM] | x | u
7 | Cc1cc(OCc2nnc(SC(C)C(=O)O)n2Cc2ccccc2)ccc1Cl (stereo not given) | -15% | x | 0% | 1% | x | 11% | 4% | -13%[46.1 µM]
8 | Nc1nonc1-n1nnc(C(=O)N/N=C/c2ccc(Br)cc2)c1CN1CCOCC1 | -17% | x | 0% | -11% | x | x | -3% | x
9 | Cc1ccc(NC(=O)c2cc(C)nc3c2c(C)nn3-c2cccc(Cl)c2C)c(C)c1 | -1% | 0.3% | x | x | 1% | 25%[46.1 µM] | x | x
10 | C/C(=N\N=C1/SC(CC(=O)O)C(=O)N1c1ccccc1)c1ccc(C)cc1 (stereo not given) | 0% | x | 0% | -4% | x | x | 7% | x
11 | COc1cc(OC)c(C2N(C)c3ccccc3N2C)cc1OC | x | -0.9% | 1% | x | -6% | x | -9% | 3%
12 | COc1cccc(NC(=O)CN(C)C(=O)c2ccc(OCC3CCCO3)cc2)c1 (stereo not given) | -15% | x | 1% | -6% | x | u | x | 27%
13 | CCOC(=O)c1cn(CC)c2cc(Cl)c([N+](=O)[O-])cc2c1=O | u | -1.8% | -1% | 25% | -7% | 18% | 2% | 9%
14 | O=C(Nc1cccc(-c2nc3ccccc3o2)c1)c1ccc(-c2ccc(Br)cc2)o1 | 0% | -1.9% | x | x | u | 27%[46.1 µM] | x | -16%[46.1 µM]
15 | O=C(Nc1ccc2c(c1)CCC2)Nc1ccccc1F | -5% | x | -5% | 9% | x | x | -16% | x

# As a working copy, some entries already given.
no. | Structure | 2A StopGo | Cruzain inh Det | SARS PLP yeast | RE007 growth inh | Cruzain noTriton | Lassa entry inh | NS1 function inh | Marburg entry inh
9 | Cc1ccc(NC(=O)c2cc(C)nc3c2c(C)nn3-c2cccc(Cl)c2C)c(C)c1 | -1% | 0.3% | x | x | 1% | 25%[46.1 µM] | x | x
10 | C/C(=N\N=C1/SC(CC(=O)O)C(=O)N1c1ccccc1)c1ccc(C)cc1 (stereo not given) | 0% | x | 0% | -4% | x | x | 7% | x

# (more compounds)
no. | Structure | 2A StopGo | Cruzain inh Det | SARS PLP yeast | RE007 growth inh | Cruzain noTriton | Lassa entry inh | NS1 function inh | Marburg entry inh
16 | CCCCCC(=O)NC(=S)Nc1ccc2oc(=O)ccc2c1 | -5% | x | -1% | 10% | x | u | 1% | 10%[46.1 µM]
17 | CCn1c(SCC(=O)Nc2nc(C)c(C)s2)nnc1-c1cccnc1 | 12% | 1.7% | -2% | 26% | -15% | u | -4% | 2%
18 | C=CCn1cnc2c(oc3ccccc32)c1=O | 0% | x | 0% | -2% | x | u | -4% | 0%
19 | Cn1c(Cc2ccccc2)nnc1SCC(=O)N1CCN(c2ccccc2)CC1 | u | 1.4% | 0% | 23% | -1% | -7% | 0% | -11%
20 | CC1CCCCC1NS(=O)(=O)c1ccc(-n2cnnn2)cc1 (stereo not given) | -3% | 3.0% | 3% | -7% | -8% | -20% | -4% | -29%[46.1 µM]
21 | CN1CCN(CCCNC(=O)c2cc3c(=O)n(C)c4ccccc4c3s2)CC1 | -20% | -9.2% | -4% | -4% | 1% | x | -3% | 0%
22 | CCOC(=O)[C@@H]1[C@H]2COc3ccccc3[C@@H]2N2C(=O)N(c3ccc(C)cc3)C(=O)[C@]12C | 21% | x | 0% | -15% | x | x | -14% | x
23 | O=Nc1c(O)n(Cc2c(Cl)cccc2Cl)c2ccccc12 | u | -6.8% | 25% | 18% | -8% | -1% | 8% | u
24 | Cc1ccc(C)c2[nH]c(=O)c(C(c3nnnn3C3CCCC3)N3CCOCC3)cc12 (stereo not given) | -9% | -6.1% | 6% | -5% | -2% | 9% | -7% | u
25 | Cc1cccc(NC(=O)c2c(NC(=O)C(F)(F)F)sc3c2CCCCC3)c1 | u | -25% | x | x | -23% | u | x | x
26 | COc1ccc(CNc2ncccn2)cc1OC | -14% | x | 1% | -7% | x | 24%[46.1 µM] | 0% | 3%[46.1 µM]
27 | O=C(N/N=C/c1ccc2c(c1)OCO2)c1cc(-c2ccco2)nc2ccccc12 | 0% | x | 3% | -5% | x | -40% | x | u
28 | COC(=O)c1ccc2c(c1)sc(=NC(=O)c1ccc(S(=O)(=O)N3CCCCC3)cc1)n2C | -5% | -0.8% | x | x | 2% | u | x | x
29 | NC(N)=N/N=C/c1cn(-c2ccccc2)nc1-c1cccs1 | u | x | 1% | 39% | x | u | x | 23µM*
30 | CC(C)CCNC(=O)CCc1nnc2n(CCCOC(C)C)c(=O)c3ccccc3n12 | -1% | x | 4% | -14% | x | -1% | 0% | 4%

# Pulled by compound from the list above, six records:
no. | Structure | 2A StopGo | Cruzain inh Det | SARS PLP yeast | RE007 growth inh | Cruzain noTriton | Lassa entry inh | NS1 function inh | Marburg entry inh
22 | CCOC(=O)[C@@H]1[C@H]2COc3ccccc3[C@@H]2N2C(=O)N(c3ccc(C)cc3)C(=O)[C@]12C | 21% | x | 0% | -15% | x | x | -14% | x
30 | CC(C)CCNC(=O)CCc1nnc2n(CCCOC(C)C)c(=O)c3ccccc3n12 | -1% | x | 4% | -14% | x | -1% | 0% | 4%
21 | CN1CCN(CCCNC(=O)c2cc3c(=O)n(C)c4ccccc4c3s2)CC1 | -20% | -9.2% | -4% | -4% | 1% | x | -3% | 0%
18 | C=CCn1cnc2c(oc3ccccc32)c1=O | 0% | x | 0% | -2% | x | u | -4% | 0%
25 | Cc1cccc(NC(=O)c2c(NC(=O)C(F)(F)F)sc3c2CCCCC3)c1 | u | -25% | x | x | -23% | u | x | x
28 | COC(=O)c1ccc2c(c1)sc(=NC(=O)c1ccc(S(=O)(=O)N3CCCCC3)cc1)n2C | -5% | -0.8% | x | x | 2% | u | x | x

# Next entries
no. | Structure | 2A StopGo | Cruzain inh Det | SARS PLP yeast | RE007 growth inh | Cruzain noTriton | Lassa entry inh | NS1 function inh | Marburg entry inh
31 | CCOc1ccc(CCNC(=O)c2ccc3c(c2)c(C)c(C)n3Cc2ccccc2)cc1OCC | -19% | 0.0% | x | x | u | u | x | x
32 | COc1ccc(CCC(=O)OCC(=O)N2CCN(S(=O)(=O)c3ccc(C)cc3C)CC2)cc1 | -1% | x | -5% | -2% | x | u | x | u
33 | CCC(=O)N1CCc2cc(Br)cc(S(=O)(=O)CCC(=O)Nc3cccc(Cl)c3)c21 | -14% | -2.7% | x | x | -8% | 17%[46.1 µM] | x | -2%[46.1 µM]
34 | Cc1noc(C)c1C(=O)OCC(=O)N1CCN(S(=O)(=O)c2ccc3ccccc3c2)CC1 | -32% | x | 1% | -3% | x | x | 4% | x
35 | CC(C)CCNC(=O)C(c1ccc(O)cc1)N(C(=O)C1COc2ccccc2O1)c1cccc(O)c1 (stereo not given) | 1% | x | 1% | 0% | x | u | -5% | u
36 | C=C(C)/C=N/NC(=S)Nc1ccc(S(=O)(=O)N2CCOCC2)cc1 | -16% | x | 3% | 1% | x | 7% | 5% | -7%
37 | Cc1ccc2cccc(S(=O)(=O)N3CCCc4ccccc43)c2n1 | -5% | x | 1% | 2% | x | x | -4% | x
38 | COc1cc2[nH]c3c(=O)n4c(nc3c2cc1OC)SCCC4 | 8% | x | -1% | 7% | x | u | x | u
39 | Cc1cccn2c(=O)c3cc(C(=O)NCCN4CCOCC4)n(C)c3nc12 | -9% | x | -2% | -15% | x | 1% | -9% | -3%
40 | COc1ccc(C(CNC(=O)COc2ccccc2C#N)N2CCOCC2)cc1 (stereo not given) | -10% | 3.2% | -6% | -3% | 10% | -5% | -1% | 2%
41 | COc1ccc(-c2noc(N(c3ccc(F)c(Cl)c3)c3nc(-c4ccc(OC)c(OC)c4)no3)n2)cc1OC | 7% | -5.6% | x | x | -7% | -19%[46.1 µM] | x | 0%[46.1 µM]
42 | Cc1ccc(NC(=O)NC(=O)COc2c(F)c(F)cc(F)c2F)c(C)c1 | 1% | x | 3% | -12% | x | 8% | x | 6%
43 | CC(C)c1cc(N2CCC(=O)NC2=O)cc(C(=O)O)c1O | -22% | -3.3% | 20% | 3% | 1% | 6% | 19% | 22%
44 | C=CCN(c1ccccc1)S(=O)(=O)c1cccc2cccnc12 | 22% | x | 1% | -12% | x | x | 6% | x
45 | C=CCN1C(=O)NC(=O)/C(=C/c2c(CCN(C)C(=O)c3ccccc3)cc3c(c2OC)OCO3)C1=O | -4% | x | -1% | -3% | x | x | 11% | x
46 | CCSc1nnc(NC(=O)c2csc(C)c2)s1 | 52%[activator] | 3.1% | -4% | -18% | -13% | 6% | -4% | 17%
47 | O=S(=O)(Nc1ccc2c(c1)nc1n2CCN(Cc2ccccc2)C1)c1ccc(F)cc1 | 10% | -3.3% | -3% | -2% | u | -1% | 15% | 1%
48 | Cc1ccc2nc(N3C(=O)C(O)=C(C(=O)c4ccco4)C3c3cccc(O)c3)sc2c1 (stereo not given) | 1% | x | 4% | -6% | x | 11%[46.1 µM] | 17% | u
